VCAM-1 down = suppression of endothelial VCAM-1 upregulation – cell-based, plate reader, pooled HUVEC, TNFa stimulus (AID 454). inhibition, % at 5 µM. HUVEC TNFa-induced VCAM-1 surface immunofluorescence, plate reader; numbers were filed only for top-ranked candidate wells. 10,000 tested, 0.2% active;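 active = compound among top-ranked inhibitors of TNF-induced VCAM-1 adhesion protein staining, with the hit upheld by image or statistical review; inactive = the rest, including hits rejected on review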;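 also: 0% = TNFa with vehicle and 100% = cells without TNFa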
VCAM-1 augmentation = enhancers of VCAM-1 display on endothelial cells, imaging, high-content imaging, pooled HUVEC, TNFa stimulus (AID 457) | Pooled HUVEC, TNFa-induced VCAM-1 immunofluorescence imaging; hits of this screen are not shown here | calls only | 10,000 tested, 0.2% active;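 active = a top-ranked rise in VCAM-1 staining upheld on image or statistical review; inactive = the rest, including candidates rejected on review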;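 also: compounds tested at 5 µM in the well; cells exposed to compound for 24 hours before fixing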
FPRL1 ligand = binds the human formylpeptide receptor-like-1 FPRL1; AID 441; inhibition, %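 (tested at 6.7 µM)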; P25090; FPRL1-expressing cells, fluorescent ligand binding inhibition, flow cytometry; 24,000 tested, 0.3% active;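 also: 0% = buffer alone and 100% = receptor blocker peptide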
Target sequence (P25090 whole entry, looked up): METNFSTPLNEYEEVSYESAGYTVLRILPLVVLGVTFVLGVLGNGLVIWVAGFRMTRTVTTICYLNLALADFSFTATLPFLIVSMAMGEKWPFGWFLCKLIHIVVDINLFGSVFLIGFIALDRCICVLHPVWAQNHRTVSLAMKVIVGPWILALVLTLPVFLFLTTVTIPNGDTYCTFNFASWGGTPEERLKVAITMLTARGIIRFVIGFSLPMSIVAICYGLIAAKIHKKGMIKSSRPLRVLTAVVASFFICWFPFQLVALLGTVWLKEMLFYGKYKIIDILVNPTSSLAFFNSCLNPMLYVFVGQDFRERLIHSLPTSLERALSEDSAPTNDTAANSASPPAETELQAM
FPR binder = ligands of human FPR, also counter-screen for FPRL1 ligands | P21462 | FPR-expressing cells, fluorescent ligand binding, flow cytometry | inhibition, %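 (tested at 6.7 µM)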 | 24,000 tested, 0.74% active;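 also: 0% = buffer wells and 100% = receptor blocker peptide wells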
Target sequence (P21462 whole entry, looked up): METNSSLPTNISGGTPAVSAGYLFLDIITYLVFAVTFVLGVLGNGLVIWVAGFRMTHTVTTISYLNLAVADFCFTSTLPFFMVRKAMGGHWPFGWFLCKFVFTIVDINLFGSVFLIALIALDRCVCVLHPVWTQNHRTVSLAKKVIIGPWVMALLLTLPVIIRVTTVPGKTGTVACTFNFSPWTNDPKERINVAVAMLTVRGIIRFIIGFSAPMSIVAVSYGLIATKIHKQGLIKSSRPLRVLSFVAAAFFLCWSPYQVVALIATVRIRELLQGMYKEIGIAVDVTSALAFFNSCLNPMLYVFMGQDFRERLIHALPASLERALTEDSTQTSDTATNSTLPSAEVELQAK
VCAM-1 down imaging = inhibitors of TNFa-induced VCAM-1 surface display, imaging, high-content imaging, pooled HUVEC, TNFa stimulus (AID 456) | HUVEC TNFa-induced VCAM-1 surface expression, immunofluorescence imaging; numbers were filed only for top-ranked candidate wells | inhibition, % at 5 µM; hits with a dose series show IC50 in µM | 10,000 tested, 0.2% active;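 active = top tenth filtered wells with inhibition above zero that passed visual or statistical confirmation; inactive = the rest, including hits rejected on review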;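 also: 0% = stimulated vehicle wells and 100% = unstimulated cells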
Active calls of the source: *; i = inactive; nt = no result given.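 The calls were made as follows, unless noted: active = mean above 30%; inconclusive = self-fluorescent; inactive = the rest.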 An excerpt, so the mix of outcomes need not match the whole.

#	mol	FPR binder	VCAM-1 down	FPRL1 ligand	VCAM-1 augmentation	VCAM-1 down imaging
1	O=c1cc(Nc2ccc3c(c2)OCO3)[nH]c(=O)n1-c1ccc(Br)cc1	13	nt	5	nt	nt
2	CN1CCN(C2=Nc3cc(Cl)ccc3Nc3ccccc32)CC1	10	i	3	i	i
3	Cc1cccc(-c2nc(CN3CCCC(C(=O)NC4CCCCC4)C3)c(C)o2)c1 (centres undefined)	-3	nt	-6	nt	nt
4	O=c1oc2ccccc2cc1NCc1ccccc1O	1	i	9	i	i
5	N=c1c(C(=O)NCc2ccc(F)cc2)cc2c(=O)n3ccccc3nc2n1CCCN1CCOCC1	5	i	-5	i	i
6	COC(=O)c1ccc(COC(=O)c2c(C)nn(Cc3ccccc3Cl)c2Cl)o1	18	i	-2	i	i
7	Cc1ccc(CNC(=O)C2CCCN(S(=O)(=O)c3cnc[nH]3)C2)cc1 (centres undefined)	-3	i	2	i	i
8	O=C(NCc1ccccn1)C1CCCN(S(=O)(=O)c2cccc3nsnc23)C1 (centres undefined)	0	nt	-1	nt	nt
9	Cc1cc(C(=O)NCC2CCCO2)n(-c2ccccc2)n1 (centres undefined)	-1	nt	3	nt	nt
10	CCCC(=O)NC(Nc1ccc(S(=O)(=O)Nc2cc(C)on2)cc1)(C(=O)OCC)C(F)(F)F (centres undefined)	4	nt	2	nt	nt
11	O=C(NC1CCCCC1)N1CCCCCCC1	-3	nt	3	nt	nt
12	Cc1ccc(F)c(NC(=O)C2CCCCC2C(=O)O)c1 (centres undefined)	27	nt	26	nt	nt
13	COc1ccc(C(=O)Nc2nnc(Cc3cccs3)s2)cc1OC	-13	nt	-8	nt	nt
14	c1ccc(-c2nnc(CN3CCC4(CC3)OCCO4)o2)cc1	19	i	11	i	i
15	CC(=O)N1CCc2cc(S(=O)(=O)NCCC3=CCCCC3)ccc21	0	i	-5	i	i
16	O=C(Cc1ccc(Br)cc1)N1CCCCCC1	2	i	3	i	i
17	Cc1cc(=S)cc(C)n1CCCO	3	nt	3	nt	nt
18	CCN(CC)S(=O)(=O)c1cccc2c(N(C)C)cccc12	-5	i	6	i	i
19	CCOc1ccc(/C(O)=C2/C(=O)C(=O)N(CC3CCCO3)C2c2ccc(C)o2)cc1 (centres undefined)	26	nt	-6	nt	nt
20	Cn1c(-c2cc(Br)ccc2O)n[nH]c1=S	-2	i	10	i	i
21	CC(=O)NCCc1cc2ccc(C)cc2[nH]c1=O	5	nt	-6	nt	nt
22	CCCN1CCN(C(=O)CCCn2c(C)c3cnn(-c4ccccc4)c(=O)c3c2C)CC1	-3	nt	1	nt	nt
23	O=C(NC1CCCCC1)c1ccc(CS(=O)(=O)Cc2ccccc2F)o1	5	nt	-5	nt	nt
24	Cc1ccccc1C(=O)NC1CCN(Cc2nnnn2Cc2ccccc2)CC1	0	i	1	i	i
25	O=C(NCC(c1cccnc1)N1CCN(c2ccc(F)cc2)CC1)C1CCCCC1 (centres undefined)	-1	nt	4	nt	nt
26	CCCSc1nc2c(c(=O)n1-c1ccc(OCC)cc1)SCC2	2	nt	2	nt	nt
27	CCCCn1c(CN2CCN(CCO)CC2)nc2ccccc21	-2	i	1	i	i
28	O=C(CCCNS(=O)(=O)c1cccc2nsnc12)NCc1ccc(F)cc1	-4	nt	4	nt	nt
29	O=C(O)CSc1ccc2ccccc2n1	-4	i	3	i	i
30	CCn1c(=O)cc(SCC(=O)N2CCN(Cc3ccc4c(c3)OCO4)CC2)c2ccccc21	5	nt	8	nt	nt
31	COc1ccc(F)cc1S(=O)(=O)Nc1ccc2c(c1)OCCO2	-2	nt	-1	nt	nt
32	CCOC(=O)N1CCN(c2c(N3CCN(c4ccccn4)CC3)c(=O)c2=O)CC1	2	i	1	i	i
33	CC1CCCN(S(=O)(=O)c2ccc(Br)s2)C1 (centres undefined)	-4	nt	-8	nt	nt
34	Cc1cc(=O)n2nc(N3CCCC(C(=O)NCc4ccc5c(c4)OCO5)C3)sc2n1 (centres undefined)	1	nt	-1	nt	nt
35	CC(C)OC(=O)c1nnc(Cc2ccc(F)cc2)o1	-14	nt	-2	nt	nt
36	CCn1c(=O)cc(SCC(=O)NCc2ccccn2)c2ccccc21	0	nt	-4	nt	nt
37	COc1ccc(OC)c(-c2cc(C(=O)N3CCN(c4ccccc4)CC3)no2)c1	-13	nt	-3	nt	nt
38	Cc1ccc(S(=O)(=O)c2nc(-c3ccc(F)cc3)oc2SCC(N)=O)cc1	-4	nt	-8	nt	nt
39	CCOC(=O)CNC(=O)C(=O)c1c(O)[nH]c2ccccc12	-5	nt	-15	nt	nt
40	CCOC(=O)C1CCN(C(=O)C2CCN(c3nc4ccc(OC)cc4s3)CC2)CC1	4	nt	-6	nt	nt
41	CCc1cccc(C)c1NC(=O)C1C2CCC(O2)C1C(=O)O (centres undefined)	-5	nt	-3	nt	nt
42	COc1ccc(/C(O)=C2\C(=O)C(=O)N(c3cc(C)on3)C2c2ccc(OC)c(OC)c2)cc1OC (centres undefined)	-3	nt	-1	nt	nt
43	Nn1c(SCC(=O)Nc2ccc(F)cc2)nnc1-c1cccnc1	2	i	9	i	i
44	CCOc1ccc(-c2[nH]nc3c2C(c2ccc4c(c2)OCO4)C(C#N)=C(N)O3)cc1OC (centres undefined)	7	nt	-5	nt	nt
45	Fc1ccc(OCc2nc(-c3ccc(Br)o3)no2)c(F)c1	0	nt	3	nt	nt
46	CN(C)c1ccc(NC(=O)Cn2cc3c(n2)CCCC3)cc1	-5	i	3	i	i
47	CCC(=O)N1CCc2cc(S(=O)(=O)NC(C(=O)NCc3ccc(F)cc3)C(C)C)ccc21 (centres undefined)	-2	nt	-2	nt	nt
48	COc1cccc(NC(=O)N2CCN(C(=O)C(Cc3ccc(OC)c(OC)c3)NC(C)=O)CC2)c1 (centres undefined)	-6	i	-3	i	i
49	COC(=O)c1cc(-c2c(C)oc3cc(OC(C)C)ccc3c2=O)c(C)o1	-2	nt	0	nt	nt
50	c1nc(NCC2CCCO2)c2[nH]cnc2n1 (centres undefined)	3	i	2	i	i
51	O=C(CN1C(=O)CC(c2ccccc2)=Nc2ccccc21)NCc1ccco1	0	i	1	i	i
52	c1ccc(-c2ccc(-c3ccccn3)nn2)nc1	3	i	-9	i	i
53	Nc1[nH]nc2nc(N3CCOCC3)nc(-c3ccccc3)c12	4	nt	5	nt	nt
54	CCOC(=O)N1CCN(c2c(N3CCN(c4ccccc4OC)CC3)c(=O)c2=O)CC1	-2	i	-3	i	i
55	C=CCc1c(C)nc(SC)nc1Nc1ccc(C(=O)O)cc1	-3	i	6	i	i
56	CC(=O)C1=C(C)NC(=O)NC1c1cccc(O)c1 (centres undefined)	1	i	1	i	i
57	Cc1cccc(-n2ncc3c(N4CCN(c5nc(C)cc(C)n5)CC4)ncnc32)c1	0	nt	0	nt	nt
58	COc1cccc(C2CC(c3ccc(C)cc3)n3nc(N)nc3N2)c1 (centres undefined)	5	i	2	i	i
59	Cc1oc(-c2ccccc2F)nc1CS(=O)(=O)CC(=O)NCCCN(C)C1CCCCC1	2	nt	8	nt	nt
60	CC(NC(=O)c1cc2sccc2n1C)c1ccc2c(c1)OCCO2 (centres undefined)	-6	nt	-2	nt	nt

Further compounds
#	mol	FPR binder	VCAM-1 down	FPRL1 ligand	VCAM-1 augmentation	VCAM-1 down imaging
61	CCCCCC(=O)N1CCN(CCN=CC2=C(O)CC(c3ccco3)CC2=O)CC1 (centres undefined)	5	nt	-2	nt	nt
62	O=C(c1ccccn1)N(CC1CCCO1)C1(C(=O)NC2CCCCC2)CCCCC1 (centres undefined)	12	nt	-1	nt	nt
63	CCOC(=O)CSc1nc2ccccc2c(=O)n1NC(=O)c1ccccc1	4	i	-5	i	i
64	COc1ccc(N(C(=O)c2ccco2)S(=O)(=O)c2cc(OC)ccc2OC)cc1	0	i	2	i	i
65	O=C(c1ccc2c(=O)n(-c3ccccc3)c(=O)[nH]c2c1)N1CCN(c2ccc(F)cc2)CC1	-2	nt	-8	nt	nt
66	CCOc1ccccc1/C=c1\sc2nc(-c3ccco3)nn2c1=O	22	nt	14	nt	nt
67	CCCCN=c1sc(C(=O)OC)cc(=O)n1CCCC	-8	nt	6	nt	nt
68	Cn1c(CCNC(=O)c2ccc(F)cc2)nc2ccccc21	-2	nt	-8	nt	nt
69	O=c1cc(-c2ccc3c(c2)OCO3)oc2ccccc12	5	nt	-1	nt	nt
70	COC(=O)c1ccc(C2c3c(oc4ccccc4c3=O)C(=O)N2CCCN2CCOCC2)cc1 (centres undefined)	-1	nt	4	nt	nt
71	Cc1ccc2[nH]c(=O)c3cc(C(=O)NCCN4CCN(C)CC4)sc3c2c1	-1	i	0	i	i
72	CCOc1ccc(Cn2nnc(C(=O)NCCc3ccccc3)c2N)cc1	0	nt	1	nt	nt
73	CC(C)(C)n1ncc2c(=O)n(Cc3c(F)cccc3Cl)cnc21	7	nt	5	nt	nt
74	O=C(Cn1cnc2c(oc3ccccc32)c1=O)NCC1CCCO1 (centres undefined)	-4	nt	-3	nt	nt
75	Cc1ccc(N2OC3C(=O)NC(=O)C3C2c2ccco2)cc1 (centres undefined)	-1	nt	3	nt	nt
76	O=C(Nc1nnc(N2CCCCCC2)s1)c1cc(-c2ccc(Br)cc2)on1	-1	i	0	i	i
77	COc1ccc(NC(=O)CC2Oc3ccc(C)cc3NC2=O)cc1 (centres undefined)	-2	nt	-2	nt	nt
78	COc1ccccc1-c1cc(C(=O)N2CCCCC2)no1	-5	nt	-10	nt	nt
79	COc1ccccc1NC(=O)CSc1nnc(CNC(=O)c2ccco2)o1	-3	nt	4	nt	nt
80	O=C(CCN1CCOCC1)Nc1cccc(Br)c1	-2	i	3	i	i
81	Cc1nnc(SCC(=O)N2CC(=O)Nc3ccccc32)n1-c1ccccc1	-8	i	1	i	i
82	CC1(CC(=O)O)C(=O)N=C2C=CC=CN21 (centres undefined)	-7	i	-4	i	i
83	COC(=O)c1cn(NC(=O)c2cccc(N(C)C)c2)c(=O)c2ccccc12	16	nt	0	nt	nt
84	CN(C)CC(C(=O)c1ccccc1)c1ccccc1 (centres undefined)	-2	i	-33	i	i
85	O=C(Nc1c(C(=O)O)oc2ccc(Br)cc12)c1ccccc1	12	nt	-9	nt	nt
86	CCN1CCN(C(CNC(=O)c2ccc3c(c2)OCO3)c2cccnc2)CC1 (centres undefined)	0	i	1	i	i
87	CC(C(=O)NCc1cccnc1)N1C(=O)c2ccccc2C1=O (centres undefined)	-6	i	4	i	i
88	CC1CCN(C(=O)CN2C(=O)C(C)(C)Oc3ccc(C(=O)NC4CCCC4)cc32)CC1	-10	i	-2	i	i
89	CC(C)N(C(=O)CSc1nnc(NC(=O)C2CCC2)s1)C(C)C	12	i	5	i	i
90	CCC(=O)N1CCc2cc(Br)cc(S(=O)(=O)NCC3CCCN3CC)c21 (centres undefined)	3	nt	-4	nt	nt

Looked up above:
no. 87 in FPRL1 ligand: 4
no. 89 in FPR binder: 12

Next compounds follow.
#	mol	FPR binder	VCAM-1 down	FPRL1 ligand	VCAM-1 augmentation	VCAM-1 down imaging
91	Nc1nc(SCC(=O)N2CCCc3ccccc32)n(-c2ccccc2)n1	3	nt	-1	nt	nt
92	CN(CC(=O)N1CCc2ccccc21)S(=O)(=O)c1ccc(Br)s1	-1	nt	12	nt	nt
93	O=c1[nH]c2ccsc2c(=O)n1-c1ccc(F)c(Cl)c1	13	nt	11	nt	nt
94	CCc1ccc(NC(=O)N(C2CCC(C)CC2)C2CCN(C(C)=O)CC2)cc1 (centres undefined)	-1	nt	-23	nt	nt
95	Cn1c(=O)c2c(nc(N3CCCCC3)n2CCSc2nc3ccccc3o2)n(C)c1=O	-5	i	9	i	i
96	O=C(COc1ccc(F)cc1)Nc1ccc(-n2cnnn2)cc1	15	i	-4	i	i
97	CCN(CC)CCNC(=O)Cc1c(C(=O)O)n(C)c2ccccc12	10	nt	7	nt	nt
98	Cc1nc2sc(C(c3cccc(F)c3)N3CCC(C)CC3)c(O)n2n1 (centres undefined)	1	i	0	i	i
99	Cc1ccc(-c2noc(CSc3nnnn3C3CCCCC3)n2)cc1	5	nt	4	nt	nt
100	O=C(NCCCN1CCCC1=O)C1CCN(S(=O)(=O)N2CCOCC2)CC1	10	i	11	i	i
101	CSc1ccc(C2C(C#N)=C(N)Oc3c2ccc(=O)c2c(C)oc(C)c32)cc1 (centres undefined)	-27	nt	-9	nt	nt

Quoted at random: 2 entries already listed
#	mol	FPR binder	VCAM-1 down	FPRL1 ligand	VCAM-1 augmentation	VCAM-1 down imaging
99	Cc1ccc(-c2noc(CSc3nnnn3C3CCCCC3)n2)cc1	5	nt	4	nt	nt
98	Cc1nc2sc(C(c3cccc(F)c3)N3CCC(C)CC3)c(O)n2n1 (centres undefined)	1	i	0	i	i

Assay outcomes deposited in PubChem BioAssay by several laboratories.
